From PubChem
FEN1 inhibitor = blocks human flap endonuclease 1; P39748; Recombinant FEN1 flap cleavage, fluorescence, 15 min; Potency, µM (doses to about 114 µM), without a hit: at the top dose activity change, negative = inhibition, most hits filed as inhibitors; 390,000 compounds, 0.35% hits; also: nearly all actives have a fitted effect of over 65% in size
Target sequence (P39748 whole entry, looked up): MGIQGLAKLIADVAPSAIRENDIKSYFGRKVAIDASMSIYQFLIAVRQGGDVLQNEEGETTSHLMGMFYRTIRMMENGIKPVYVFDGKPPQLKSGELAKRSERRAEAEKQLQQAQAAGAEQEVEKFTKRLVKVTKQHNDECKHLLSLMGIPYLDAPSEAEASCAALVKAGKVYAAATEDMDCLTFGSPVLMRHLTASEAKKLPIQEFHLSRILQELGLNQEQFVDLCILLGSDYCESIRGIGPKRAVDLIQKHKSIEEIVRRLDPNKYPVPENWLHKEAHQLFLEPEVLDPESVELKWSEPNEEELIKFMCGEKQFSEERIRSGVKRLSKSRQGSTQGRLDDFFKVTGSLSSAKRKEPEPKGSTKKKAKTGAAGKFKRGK
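Nuclease activity of 10 nM FEN1 was measured after 15 min of room-temperature exposure to titrated compounds, by adding 50 nM flap substrate and reading plates at 0 and 15 min.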
N370S GC mod = inhibits or activates N370S mutant glucocerebrosidase. P04062. N370S GC spleen homogenate, 4MU-glucoside fluorescence. Potency, µM (titrated, usually from 59.4 µM), for inactives: at the highest dose activity change, negative = inhibition, actives largely listed as inhibitors. 330,000 compounds, 0.092% hits;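 also: 0% = full enzyme activity and -100% = no enzyme basal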
* hit, by the source's call; ? = inconclusive; · = no result given; & = joins results of further samples; [ ] = another dose, or the depositor's remark. Calls follow the shape of the dose curve; as a rule, active = well fitted curve in the direction sought with a large enough effect; inconclusive = small, poorly fitted or top-dose-only effect, or another doubt; inactive = no such curve, though single readings can be large; an effect the other way counts as inactive or inconclusive. Unless noted, % is scaled to controls: 0 for no effect and ±100 for the full control effect; potency is read from the fitted curve at half-maximal effect.

SMILES	FEN1 inhibitor	N370S GC mod
Cc1c(C(=O)O)sc2nc3n(c(=O)c12)CCC(C)CC3 (stereo not given)	-0.5%	5.3%
N#CCC(=O)Nc1ccc(C(=O)OCC(=O)N(Cc2ccccc2)C2CCS(=O)(=O)C2)cc1 (stereo not given)	-1.8%	-8.3%
CCN1/C(=C/c2ccc3cc(C)ccc3[n+]2CC)Sc2cc(C)c(C)cc21	31.6µM*	-6.5%
CCn1cc(Br)c(C(=O)NC(C)c2ccccc2)n1 (stereo not given)	6.0%	-18.1%
COc1ccc(S(=O)(=O)N2CCCCCC2)cc1C(=O)OCC(=O)Nc1cc(C)on1	·	-9.0%
O=C(NCc1ccccc1)C(c1ccco1)N(C(=O)c1cnccn1)c1ccc(F)cc1 (stereo not given)	6.6%	13.2%
CC(NC(=O)Cn1cnnn1)c1cccc(C(F)(F)F)c1 (stereo not given)	3.5%	1.6%
COc1ccc(-c2nc3c(c(SCC(=O)N4CCOCC4)n2)COC(C)(C)C3)cc1	4.0%	5.6%
O=C(CSc1ccc(Cl)cc1)Nc1ccccc1N1CCN(C(=O)c2ccc(Cl)cc2)CC1	-9.6%	-6.6%
Cc1ncc(CN2CCN(C3CCCC3)C(CCO)C2)s1 (stereo not given)	-12.1%	4.8%
CNC(=O)COC(=O)CCC(=O)c1ccc(Cl)cc1	-0.8%	-1.2%
O=C(CCS(=O)(=O)c1ccccc1)Nc1cccc2c1C(=O)NC2=O	2.2%	7.1%
COC(=O)c1sccc1NS(=O)(=O)c1ccc(OC)cc1	-3.8%	2.8%
O=C(/C=C/c1ccc(Cl)cc1)NCCSc1ccccc1	-3.2%	9.9%
Cc1cc(=O)[nH]c2nnc(SCc3ccc(Cl)cc3Cl)n12	0.1%	·
O=C(NCc1ccc2c(c1)OCO2)C(=O)NCC1OCCCN1S(=O)(=O)c1ccc(F)cc1 (stereo not given)	8.7%	-5.2%
O=C(c1cc2ccccc2o1)N1CCN(S(=O)(=O)c2cccs2)CC1	0.7%	2.4%
CCOC(=O)C1=C(C)NC2=C(C(=O)CCC2)C1c1ccc(O)c(OCC)c1 (stereo not given)	6.3%	7.1%
COc1ccc(-c2nc(C#N)c(NCc3ccc(F)cc3)o2)cc1OC	11.9%	5.7%
CC(C)=C(NC(=O)c1ccccc1)C(=O)Nc1cccc(C(=O)O)c1	15.8%	6.3%
CCOCCCn1c(SCc2nc3ccccc3s2)nc2ccccc2c1=O	-9.6%	25.4%
COc1cc(C(=O)N2CCN(C(=O)COc3ccc4ccccc4c3)CC2)cc(OC)c1OC	-13.2%	-3.9%
O=C(COc1ccc2cc(Br)ccc2c1)N1CCCC1	4.6%	-16.5%
O=C(Nc1ccc(N2CCOCC2)c(Cl)c1)c1ccc([N+](=O)[O-])o1	-1.4%	1.1%
CC(C)(C)OC(=O)NCCCCCc1nnc(SCC(=O)Nc2cccc(Cl)c2)o1	-20.0%	16.1%
CC1=CC(=O)C=C(C)C1=NOc1ccc([N+](=O)[O-])cc1	-18.0%	-2.8%
CC1(C)Cc2nc3sc(C(=O)NCCCO)c(N)c3cc2CO1	4.8%	-0.5%
Cc1ccc2nc(-c3cccs3)c(Nc3ccc4c(c3)OCCO4)n2c1	-2.8%	·
O=C(Nc1ccc(C(=O)Nc2ccc(C(=O)Nc3ccc(S(=O)(=O)O)c4cc(S(=O)(=O)O)cc(S(=O)(=O)O)c34)cc2)cc1)Nc1ccc(C(=O)Nc2ccc(C(=O)Nc3ccc(S(=O)(=O)O)c4cc(S(=O)(=O)O)cc(S(=O)(=O)O)c34)cc2)cc1	·	?
COc1ccc(NC(=O)C(CC(C)C)NC(=O)C2CCCCC2)cc1 (stereo not given)	2.8%	·
Cc1ccc(CNC(=O)C2CCCN(c3nn4cc(-c5ccc(C)cc5)nc4s3)C2)cc1 (stereo not given)	17.8%	·
CCN(C(=O)CN(C)S(=O)(=O)c1ccc2c(c1)n(C)c(=O)c(=O)n2C)c1cccc(C)c1	15.8%	·
CS(=O)(=O)Nc1ccc(C(=O)Nc2ccccc2Cl)cc1	-4.0%	1.3%
CCCOc1ccc(CNC(=O)C2CCCN(c3nc4c(C)cc(C)cc4s3)C2)cc1 (stereo not given)	0.5%	·
CC(C)(C)NC(=O)c1ccc2nccnc2c1	-0.2%	4.2%
COc1ccc(C2/C(=C(/O)c3ccccc3)C(=O)C(=O)N2c2ccccn2)c(OC)c1 (stereo not given)	-3.7%	-3.2%
COc1ccc2c(CC(=O)N3CCc4ccccc43)coc2c1	-14.6%	4.8%
COc1ccc([N+](=O)[O-])cc1C(=O)C(=O)c1ccccc1	-17.3%	-2.9%
CCOC(=O)c1sc2ncn(C(C)C(=O)OC)c(=O)c2c1C (stereo not given)	-5.2%	2.4%
C=CCN1C(=O)c2ccc(C(=O)N3CCN(S(=O)(=O)c4cccc(Cl)c4)CC3)cc2C1=O	1.1%	-11.5%
COCCCNC(=S)N1CCCC(c2nc3cc(C)c(C)cc3[nH]2)C1 (stereo not given)	-0.7%	7.7%
COc1cc(=O)n(C)c2c(OCC(O)C(C)(C)O)cccc12 (stereo not given)	3.4%	-2.3%&2.9%&8.2%
CCC(C)C(=O)Nc1nc(C)c(-c2csc(Nc3ccccc3OC)n2)s1 (stereo not given)	-23.4%	-26.4%
CCC1(C)Cc2c(sc3nc(SCC(=O)c4ccccc4)[nH]c(=O)c23)CO1 (stereo not given)	-8.3%	-1.8%
CCc1cccc2c(-c3ccccc3)nc(SCC(=O)Nc3ccccc3)nc12	-1.1%	·
O=C(CSc1nnc(-c2ccccc2)n1-c1ccc(Cl)cc1)N/N=C/c1ccccc1C(=O)O	20.8%	-7.8%
COc1ccc(N2CCN(C(=O)CSc3ccccc3)CC2)cc1	-1.7%	-3.4%
COc1ccc(NC(=O)c2cc3sccc3n2Cc2ccc(F)cc2)cc1OC	1.4%	-1.1%
C=CCNC(=O)O/N=C/c1csc([N+](=O)[O-])c1	6.3%	-1.0%
Cc1ccc(-c2ccc(=O)n(Cc3ccc(F)cc3)n2)cc1	5.0%&-20.4%	?
CC(C)c1ccc(OC(=O)c2cc(-c3ccc4c(c3)OCCO4)on2)cc1	-1.7%	·
CCOc1ccccc1NC(=S)N1CCN(c2ccccc2)CC1	-1.7%	2.0%
COc1ccc(N(CC(=O)Nc2cccc(Cl)c2)S(=O)(=O)c2c(C)[nH]c(=O)[nH]c2=O)cc1	-10.8%	·
COc1ccc(-c2sc3ccccc3c2-c2ccc(OCCN3CCCCC3)cc2)cc1	-11.9%	·
CCc1c(C(=O)N/N=C/c2ccc(C)o2)csc1C	8.2%	3.1%
Cc1c(C(=O)NC(Cc2ccccc2)c2nc3ccccc3[nH]2)cccc1[N+](=O)[O-] (stereo not given)	-16.8%	-3.0%
S=c1nc(-c2sccc2OCc2ccc(Cl)cc2Cl)[nH][nH]1	2.2%	0.0%
Cc1ccc(-n2c(=O)c3sccc3n(Cc3cc(=O)n4cc(Cl)ccc4n3)c2=O)cc1F	-2.2%	0.6%
O=[N+]([O-])c1ccccc1N/N=C1\CCc2ccccc21	3.2%	-2.6%
Brc1ccc(CSc2ccc3nnc(-c4ccccn4)n3n2)cc1	-8.9%	7.1%

A few values from above:
`CCOC(=O)C1=C(C)NC2=C(C(=O)CCC2)C1c1ccc(O)c(OCC)c1` (stereo not given) @ FEN1 inhibitor = 6.3%
`C=CCN1C(=O)c2ccc(C(=O)N3CCN(S(=O)(=O)c4cccc(Cl)c4)CC3)cc2C1=O` @ N370S GC mod = -11.5%

(list continues)
SMILES	FEN1 inhibitor	N370S GC mod
O=S(=O)(c1ccccc1)N(F)S(=O)(=O)c1ccccc1	-18.8%	·
Cc1cc(NC(=O)COC(=O)c2ccc(S(=O)(=O)C(F)F)cc2)n(-c2ccccc2)n1	5.2%	-0.4%
CC(=O)Nc1ccc2nc(C3CCCCC3)[nH]c2c1	-1.6%	3.9%
Cc1cc2nc[nH]c2cc1[N+](=O)[O-]	2.1%	-1.7%
CC1CCCN(CCCNC(=O)C2CC(=O)N(c3ccc(F)c(Cl)c3)C2)C1 (stereo not given)	7.8%	7.7%
CCc1nc(SCC(=O)N2CCCc3ccccc32)c2oc3ccccc3c2n1	-22.0%	25.9%
CN(c1ccc(C(=O)N2CCN(c3ccccc3F)CC2)cc1)S(=O)(=O)c1ccccc1	-16.8%	-7.8%
Cc1cc(NC(=O)c2ccco2)ncc1NC(=O)Cc1ccccc1	0.7%	-8.4%
CCn1c(=O)c(NC(=O)c2ccccc2)c2n(c1=S)CCCCC2	8.3%	·
Cc1nc2nc(CNC(=O)OC(C)(C)C)nn2c(C)c1CCC(=O)NCc1ccccc1Cl	-3.0%	·
COc1cccc(C(=O)COC(=O)C2CC(=O)N(c3ccc(Oc4ccccc4OC)cc3)C2)c1 (stereo not given)	-20.1%	-17.8%
Cc1cccn2cc(CNc3ccccc3)nc12	-3.4%	1.8%
C[C@H](CO)N1C[C@H](C)[C@@H](CN(C)S(=O)(=O)c2ccccc2)Oc2ccc(NC(=O)c3ccncc3)cc2C1=O	-8.7%	·
CN1C(=O)CSc2ccc(NC(=O)NCCC3=CCCCC3)cc21	1.9%	0.4%
Cc1cccc(C(=O)Oc2ccc(/C=N/NC(=O)c3ccc(O)cc3)cc2)c1	1.3%	-7.1%
O=C1C2Sc3[nH]c(=O)sc3C(c3ccccc3)C2C(=O)N1c1ccc(Cl)cc1 (stereo not given)	-7.5%	9.4%
Cc1ccc(NC(=O)COC(=O)CCc2c[nH]c(=O)[nH]2)cc1	-3.2%	2.8%
Cc1cc(OC(C)C(=O)NCc2ccncc2)c2c(C)cc(=O)oc2c1 (stereo not given)	-1.9%	-19.2%
S=C(NCc1ccccc1)NCc1ccccc1	10.2%	·
CN1C(=O)NC(NC(=O)c2cccs2)(C(F)(F)F)C1=O (stereo not given)	1.9%	7.7%

6 compounds already listed, arranged by the value under N370S GC mod, low to high.
Molecule,N370S GC mod
O=[N+]([O-])c1ccccc1N/N=C1\CCc2ccccc21,-2.6%
Cc1cc(NC(=O)COC(=O)c2ccc(S(=O)(=O)C(F)F)cc2)n(-c2ccccc2)n1,-0.4%
Cc1ccc(-n2c(=O)c3sccc3n(Cc3cc(=O)n4cc(Cl)ccc4n3)c2=O)cc1F,0.6%
CC(=O)Nc1ccc2nc(C3CCCCC3)[nH]c2c1,3.9%
CC(C)=C(NC(=O)c1ccccc1)C(=O)Nc1cccc(C(=O)O)c1,6.3%
CCOC(=O)C1=C(C)NC2=C(C(=O)CCC2)C1c1ccc(O)c(OCC)c1 (stereo not given),7.1%

More results.
SMILES	FEN1 inhibitor	N370S GC mod
Cc1ccc(OCC(=O)OCC(=O)NC2CC2)cc1C	19.3%	·
COc1ccccc1C(=O)NC(=S)Nc1ccc(S(=O)(=O)N2CCN(C)CC2)cc1	-6.4%	-3.7%
O=C(O)/C=C/C(=O)Nc1ccc(NC(=O)c2ccccc2)c(Cl)c1	-1.7%	1.2%
O=C(Nc1nnc(SCc2ccccc2)s1)c1ccco1	-10.6%	-1.2%
O=S(=O)(c1ccc(S(=O)(=O)N(Cc2ccc(F)cc2)C2CCCC2)cc1)N1CCCC1	-3.4%	3.9%
COc1cc(C(=O)Nc2ccc(S(=O)(=O)Nc3cc(C)on3)cc2)cc(OC)c1OC	1.4%	2.2%
COC(=O)C1=C(C(=O)OC)[C@@H]2N(C)c3ccccc3[C@@]23C[C@@H](C(=O)OC)N=C3N1	-1.2%	-11.3%[12.8 µM]
O=C(c1cc2c(s1)CCCC2)N1CCN(Cc2ccc3c(c2)OCO3)CC1	-1.1%	?
CC(C)(C)OC(=O)NCCCC1=CC2=CC(=O)C(C)(O)C(=O)C2=CO1 (stereo not given)	·	16.3%
C#CC[N+]1(CC#Cc2ccccc2)CCCC1	1.6%	14.2%
Cc1cc(NC(=O)CSc2nccn2-c2ccc(F)cc2)no1	-2.0%	14.0%
CCOC(=O)c1c(C)[nH]c(C(=O)CN2CCN(CC)CC2)c1C	3.1%	-0.6%
Cn1c(=O)[nH]c(=O)c2c1nc1n2CCCS1	7.0%	6.6%
Cc1ccc(-c2nc(COC(=O)c3c(C)noc3C)cs2)cc1	-2.7%	-5.6%
O=C(Nc1ccccc1N1CCOCC1)c1cccc([N+](=O)[O-])c1	1.6%	-1.9%
CCCCSc1c(C)c2cc3c(cc2[nH]c1=O)OCO3	3.3%	?
O=c1sc(Nc2ccccc2)nc2ccccc12	5.2%	-0.8%
CCOC(=O)C1CCCN(C(=O)c2ccc(OCC)cc2)C1 (stereo not given)	-10.4%	6.0%
Cc1c(Cl)c(C(=O)NNC(=S)Nc2ccccc2)nn1C	7.5%	4.0%
CCOC(=O)C(=O)N=Nc1c(O)[nH]c2ccccc12	0.9%	1.8%
COC(=O)c1sccc1-n1cccc1C(=O)C(=O)N1CCOCC1	-0.3%	6.0%
CC(=O)Nc1cc(NC(C)=O)cc(C(=O)OCC(=O)c2ccc3c(c2)NC(=O)CO3)c1	-3.7%	-3.6%
O=C(CCCn1ncn2c(cc3occc32)c1=O)NCc1cccc(Cl)c1	13.6%	-21.7%
Cc1cc(C)c[n+](C2=C([O-])c3ccccc3C(=O)/C2=N\S(=O)(=O)c2cccs2)c1	-6.8%	1.1%
O=C(Nc1ccc(F)cc1)c1ccc(CSc2ccccc2)o1	-5.2%	?
COC(=O)C1=C(C)N(c2cc(C)cc(C)c2)/C(=C/c2ccc(O)cc2)C1=O	-15.5%	-9.4%
O=C(c1ccc(OC2CCN(C(=O)c3cccnc3)CC2)cc1)N1CCCCCC1	-1.3%	2.7%
Cc1cc(NC(=S)Nc2cccc3ccccc23)n[nH]1	-6.4%	0.1%
C(=C\CSc1nnnn1-c1ccccc1)/CSc1nnnn1-c1ccccc1	2.0%	8.9%
Cc1sc(NC(=S)NC(=O)C(C)(C)C)c(C(N)=O)c1C	-1.5%	8.5%
OCC(O)CN1CCCC1 (stereo not given)	-6.2%	1.9%

Some of the compounds tested; most or all hits stand in other tables.
